# Compound activity from PubChem.
# gsp ag: agonists of gsp mutant (McCune-Albright syndrome) | gsp mutant cells, cAMP HTRF, 30 min; control for the full effect not named in the record | Potency, µM (doses to about 76.9 µM), for inactives: at the highest dose activation (cAMP increase), hits mostly activators | actives 0.13% (n = 340,000) | AID 624287; active = well fitted activation curve with a large enough effect; inconclusive = small, poorly fitted or top-dose-only effect, or another doubt; inactive = no such curve, though single readings can be large or run the other way; cell line not stated here;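 further: phosphodiesterase inhibitor Ro 20-1724 added with compounds to block cAMP breakdown; potency means the concentration at half of the fitted maximal effect; nearly all actives have a fitted effect of over 60% in size; about a fifth of the inactives were tested at one dose only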
#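 Cells stably selected in G418 were plated at 2000/well, grown 16-24 hr, then given compounds in DMSO with the PDE inhibitor […] (300 uM solution added) for 30 min at 37C; cAMP was read by HTRF.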
# Sfp PPTase inh: blocks B. subtilis Sfp PPTase activity. Q9F4F7. Biochemical Sfp PPTase activity, qHTS. Potency, µM, without a hit: max response, negative = inhibition, most hits filed as inhibitors. actives 3.5% (n = 310,000). AID 1490; active means well fitted inhibition curve with a large enough effect; inconclusive means small, poorly fitted or top-dose-only effect, or another doubt; inactive means no such curve, though single readings can be large or run the other way;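 further: the enzyme is Sfp with the accession as filed and its product quenches rhodamine fluorescence; potency means the concentration at half of the fitted maximal effect; 0% = enzyme reaction without inhibitor and -100% = no enzyme wells; top concentration of the series not given in the record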
#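 Step 1, compound plus 15 nM Sfp-PPTase, 15 min, room temperature. Step 2, add rhodamine-CoA (5 uM) and BHQ-2-YbbR (12.5 uM). Step 3, read 525/598 nm fluorescence at 0 and 30 min.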
# ClpP mod: qHTS Assay for Activators of ClpP | ATP-dependent Clp protease proteolytic subunit (Bacillus subtilis (strain 168)), P80244 | purified B. subtilis ClpP, FRET peptide cleavage, 20 min | Potency, µM (top dose mostly 57.5 µM), for inactives: top-dose activity change, negative = active | actives 1.9% (n = 340,000) | AID 651965, 2013; active = well fitted falling curve with a large enough effect; inconclusive = small, poorly fitted or top-dose-only effect; inactive = no such curve, though single readings can be large or run the other way; further: potency means the concentration at half of the fitted maximal effect; the source files actives as falling curves though it sought activators and does not explain the sign; nearly all actives have a fitted effect of over 65% in size; many hits overshoot -100%
# Target sequence (P80244 whole entry, looked up): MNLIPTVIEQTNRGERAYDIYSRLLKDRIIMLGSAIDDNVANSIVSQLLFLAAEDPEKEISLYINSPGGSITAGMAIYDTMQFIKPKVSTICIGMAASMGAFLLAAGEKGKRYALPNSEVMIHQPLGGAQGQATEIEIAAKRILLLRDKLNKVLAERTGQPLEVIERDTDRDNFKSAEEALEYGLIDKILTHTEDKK
#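 FRET quenching reversal measured ClpP activation: 10 microg/mL B. subtilis ClpP at pH 8 with the FRET-FV decapeptide, read at 430 nm after 320 nm excitation. The 20-min minus 0-min signal was scaled between DMSO/no-enzyme wells and ADEP (5.8 microM final).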
# D2 ag: agonists of human D2 dopamine receptor (beta-arrestin); DiscoveRx PathHunter D2 beta-arrestin, luminescence, 90 min; 100% = 57 uM dopamine signal; AID 624465; actives 0.084% (n = 360,000); P14416; activation, % (no concentration beside the values); in the data active = activation above about 40%; inconclusive = about 15% to 40%; inactive = below about 15%; further: compound concentration not given in the record; the text of the record calls up to 30% inactive
# Target sequence (P14416 whole entry, looked up): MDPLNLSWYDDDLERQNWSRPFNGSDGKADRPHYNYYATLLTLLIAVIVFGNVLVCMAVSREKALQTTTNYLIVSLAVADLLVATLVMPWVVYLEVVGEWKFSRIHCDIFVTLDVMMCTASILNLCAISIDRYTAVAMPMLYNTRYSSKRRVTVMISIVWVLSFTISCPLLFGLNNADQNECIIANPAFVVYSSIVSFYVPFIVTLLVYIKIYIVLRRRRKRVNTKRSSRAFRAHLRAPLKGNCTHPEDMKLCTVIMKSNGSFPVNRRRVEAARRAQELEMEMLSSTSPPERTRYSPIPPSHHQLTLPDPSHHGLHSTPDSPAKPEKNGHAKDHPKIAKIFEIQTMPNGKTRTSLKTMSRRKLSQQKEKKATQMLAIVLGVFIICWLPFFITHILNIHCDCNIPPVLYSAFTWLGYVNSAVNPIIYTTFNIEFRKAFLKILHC
#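 DiscoveRx PathHunter D2 beta-arrestin cells (2,100/well) attached overnight, then compound-stimulated 90 min at 37 C in HBSS/10 mM HEPES/0.1% Tween-20 buffer; beta-galactosidase complementation read by luminescence after 1 h at ambient temperature. Dopamine 57 uM final (EC100) as control.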
# gsp antagonist: gsp mutant antagonism; AID 624288; actives 0.4% (n = 340,000); gsp-mutant cells, cAMP HTRF, 30 min; control for the full effect not named in the record; Potency, µM (highest dose often 76.9 µM), inactives show at the top dose activity change, negative = inhibition, hits mostly inhibitors; active = falling curve of any shape with a large fitted effect; inconclusive = falling curve, mostly with a smaller effect; inactive = flat or rising curve; cell line not stated here;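 further: intracellular cAMP measured with PDE inhibitor Ro 20-1724 present during compound exposure; potency means the concentration at half of the fitted maximal effect; on the % scale 0 is the no-effect control and ±100 the full control effect; nearly all actives have a fitted effect of over 65% in size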
#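 HTRF cAMP measurement after 30 min RT detection following 30 min, 37C compound treatment alongside […] (added as 300 uM solution) in G418-selected cells seeded at 2000/well and grown 16–24 h.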
# Menin-MLL FL inh: menin-MLL binding inhibition, fluorescein peptide | Fluorescence polarization, fluorescein-MLL peptide displacement from menin | FP activity change, % at 61.4 µM | 290,000 tested, under 10 active | AID 1766; inconclusive = falling polarisation curve, or a change in total fluorescence; inactive = total fluorescence flat and polarisation flat or rising; no compound was filed as active; the % refers to the polarisation; negative = inhibition;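 further: % of control where 0% means no effect; inhibitors lower the polarisation; unlabelled MLL peptide was the positive control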
# PINK1 expr mod: PINK1 expression modulation. PINK1 immunofluorescence, high-content cytometry, 24 h. Potency, µM (titrated, usually from 76.6 µM), inactives show top-dose activation (PINK1 increase), usual class: activators. actives 0.2% (n = 410,000). AID 624263; active = well fitted activation curve with a large enough effect; inconclusive = small, poorly fitted or top-dose-only effect; inactive = flat fitted curve, though single readings scatter; cell line not stated here;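 further: potency means the concentration at half of the fitted maximal effect; % of control where 0% means no effect; nearly all actives have a fitted effect of over 65% in size; a mitochondrial uncoupler was the plate control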
#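 Cells are seeded, rested 12 hours, then given compound at five concentrations or DMSO for 24 hours. After fixation, blocking and antibody staining, PINK1 amount and mitochondrial localization are scored; CCCP serves as control.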
# Active calls of the source: *; ? = inconclusive; / = no result given; [ ] = remark or other dose.
Structure | Menin-MLL FL inh | PINK1 expr mod | ClpP mod | gsp antagonist | gsp ag | Sfp PPTase inh | D2 ag
COc1ccccc1C(=O)NC(C)C(c1cccs1)N1CCOCC1 (stereo unspecified) | 1.5 | / | -2.7% | -18% | 11% | 7% | 0.1
COCc1cc(C)nc(SCC(=O)NCc2ccco2)c1C#N | 0.5 | 7.7%[38.3 µM] | -0.2% | 0% | 17% | 14% | -1.1
Cc1nnc(SCc2ccccc2)n(N)c1=O | 5.3 | -0.7% | -4.7% | 5% | 0% | 4% | -3.2
COc1cc(NC(=O)CSc2nc3ccccc3cc2C)c(C(=O)O)cc1OC | -0.6 | 4.4% | -7.1% | 1% | -27% | -19% | -1.1
CCOc1ccccc1NC(=O)C1CCN(C(=O)Cc2ccccc2)CC1 | 25 | 1.5% | / | 4% | -27%[15.4 µM] | 16% | -5.3
O=C(O)c1ccccc1C(=O)NCc1ccc(F)cc1 | 4.3 | 3.7%[38.3 µM] | -1.4% | 13% | -3% | 1% | 0.1
CC12CCC(C(=O)N(Cc3ccccc3)Cc3ccccc3)(OC1=O)C2(C)C (stereo unspecified) | 1.1 | 4.3% | 3.1% | -8% | -25% | 4% | -2.8
C=C1CC2C=C(NC(C)=O)CC(C1)C2 (stereo unspecified) | 2.6 | 2.0%[38.3 µM] | 1.2% | 10% | 3% | 9% | -2.4
Cc1cccnc1NS(=O)(=O)c1ccccc1 | / | 1.3% | -18% | / | -1% | / | -1.7
CCN(CC)C(=O)CSc1nc2c(sc(=S)n2-c2ccccc2)c(=O)n1-c1ccc(OC)cc1OC | -18 | 2.1% | -0.5% | ? | 0% | 22µM* | 1.7
CC1CC(O)C(C)CN1 (stereo unspecified) | 0.7 | 1.6% | 0.2% | -2% | 7%[15.4 µM] | 11% | -4.2
C=CCc1cccc2cc(C(=O)NC3CCCC3)c(=O)oc12 | -6.5 | 2.7% | / | 14% | -13%[15.4 µM] | 3% | -4.0
CCOC(=O)NC(=O)c1cn(Nc2ccccc2)c(=O)[nH]c1=O | 0.9 | 0.9% | -0.9% | -7% | 10%[15.4 µM] | 4% | -1.5
CCCNc1ncccc1C(N)=O | 3.3 | 0.8% | ? | 16% | 18% | 15% | -1.0
CC(C)CCSc1cc(NCCO)c([N+](=O)[O-])c2nonc12 | 0.1 | 3.4% | -0.7% | -1% | -7%[15.4 µM] | -13% | 1.6
CCOC(=O)c1ccc(CNC(=O)c2cc(COc3ccccc3SC)on2)o1 | / | 1.4% | 0.4% | 1% | -90%[inhibitor] | -2% | -2.1
CC(=O)/C(=C/c1ccc(N(C)C)cc1)C(=O)c1ccccc1 | / | 1.0% | -1.0% | 11% | 0% | 11% | -0.8
CC1(C)CC(=O)C(C=NCC2CCCO2)=C(O)C1 (stereo unspecified) | 2.6 | 0.4% | 0.0% | 13% | -33%[inhibitor] | 9% | 2.2
Cc1ccc([N+](=O)[O-])cc1NC(=O)c1ccoc1C | 3.4 | 2.0% | ? | 1% | 0% | -16% | -4.2
O=C(COc1ccccc1Br)c1ccc(O)cc1O | 3.3 | 2.6%[38.3 µM] | 1.1% | -25% | -54%[inhibitor] | 6% | 1.5
CC(C)(Oc1ccc(Cl)cc1)C(=O)Nc1ccc2oc(=O)ccc2c1 | 1.7 | 1.2% | -5.9% | 1% | -19% | 5% | -4.9
CC(C)C[C@H]1CNC(=S)N1CC1CCCN1C[C@H](CC(C)C)N1C[C@H](Cc2ccc(O)cc2)N(CC2CCCCC2)C1=S (stereo partly specified) | / | ? | -2.1% | 5% | / | / | -0.1
COc1cccc(NC(=O)COC(=O)c2c(-c3ccccc3)noc2C)c1 | 2.5 | 6.3%[38.3 µM] | -2.0% | -4% | -61%[inhibitor] | 9% | -1.7
CSC1=N/C(=C\C=C\c2cccs2)C(=O)S1 | ? | 10% | -0.6% | -12% | 10%[15.4 µM] | -6% | -5.4
O=C(c1cnccn1)N1CCC[C@@]2(CCN(Cc3nccs3)C2)C1 | 2.7 | 0.1% | / | / | / | -27% | /
CC(O)(c1cccnc1)c1nc(/C=C/c2ccccc2)cs1 (stereo unspecified) | / | 2.4% | -5.5% | / | / | / | 7.2
O=C(CSc1nc(Nc2ccccc2)nc(N2CCOCC2)n1)Nc1ccc([N+](=O)[O-])cc1 | 4.4 | -2.1%[38.3 µM] | -2.4% | 16% | -5% | 25% | -1.4
O=C(O)CN1C(=O)Nc2ccc(Br)cc2C1c1ccccc1 (stereo unspecified) | 1.5 | 2.4% | -2.4% | 1% | 11% | 17% | -3.3
O=C(COC(=O)c1cc[n+]([O-])cc1)Nc1c(Cl)cccc1C(F)(F)F | / | -0.4% | -0.7% | 4% | 8% | / | -0.9
COc1c(C)cc(C(=O)C2CCCN(C(=O)c3ccc4cc[nH]c4c3)C2)cc1C (stereo unspecified) | -0.6 | 3.2% | / | -7% | -7%[15.4 µM] | 8% | 1.5
Cc1ccc(OCC(=O)NNC(=O)C2CSC3(C)CCC(=O)N23)cc1C (stereo unspecified) | / | 0.2% | 2.0% | 15% | 12% | / | -1.7
CN(C)/C=C1\C(=O)N(c2ccc(Cl)cc2)CS1(=O)=O | 0.3 | -2.2% | -0.7% | 4% | 13% | 14% | 1.6
CC(/C=N/NC(=O)CSc1ccccn1)=C\c1ccc(C(C)C)cc1 | 2.5 | 6.4% | -1.4% | -10% | ? | -13% | 0.5
Cc1cc(C)c(S(C)(=O)=O)c(Oc2ccccc2C)n1 | -3.1 | 0.3% | -1.8% | 8% | 3% | 16% | -3.5
CCNC(=S)N1CCN(S(=O)(=O)c2ccc(C)c(C)c2)CC1 | 17 | 3.4% | 0.4% | -2% | 21% | 10% | -4.4
O=c1c2cc(Br)ccc2nc(-c2ccccc2)n1O | -1.0 | 0.7% | -1.7% | -22% | -19% | 5% | -5.2
COc1cc(C)c(NC(=O)C2CCN(S(=O)(=O)c3cccs3)CC2)cc1OC | / | -1.1% | -4.6% | -16% | -20% | / | -2.4
COc1cccc(C(=O)OCC(=O)N2CCc3ccccc3C2)c1 | / | 0.9% | / | 12% | 18% | / | -2.6
Cc1ccc(-n2ncc(C#N)c2/N=C/N2CCOCC2)cc1 | 2.6 | 0.6% | 2.0% | -5% | ? | 18% | -5.1
Cc1ccc(C(=O)CCC(=O)Nc2ncccc2C)cc1 | / | 1.2% | -1.6% | -1% | ? | / | -0.3
CC1(c2ccc(NC(=O)c3ccccc3F)cc2)CC1(Cl)Cl (stereo unspecified) | 0.6 | 0.6% | -1.8% | -7% | 2% | 0% | -1.9
COc1ccccc1CCc1nnc(CCC(=O)NC(C)Cc2cccc(C)n2)o1 (stereo unspecified) | 0.2 | -0.2% | 0.8% | 9% | 13% | 20% | -3.8
Cc1cccc(C)c1NC(=O)CS(=O)CC(=O)N1CCN(c2ccccc2)CC1 (stereo unspecified) | -0.4 | 0.8% | / | 9% | -6%[15.4 µM] | 22% | -2.8
CC(C)[C@@H](C(=O)OCC(=O)c1ccc2c(c1)NC(=O)CO2)N1C(=O)c2ccccc2C1=O | / | -1.8% | / | -8% | 13% | / | 3.9
CCC1C=C(c2ccccc2)C=CN=C1N(CC)CC (stereo unspecified) | 4.6 | 3.5% | -1.6% | 9% | -14% | -2% | -4.4
N#Cc1c(-c2cccs2)cc(-c2cccnc2)nc1N | 5.9 | -0.1% | ? | 19% | ? | 3% | -0.4
CCNC(=S)N1CCN=C1Nc1nc(C)cc(C)n1 | -1.6 | 1.7% | / | -14% | 9%[15.4 µM] | 17% | 0.2
CN(C(=S)Nc1ccccc1)c1ccccc1 | -1.1 | -0.1% | 0.7% | 9% | 1% | 9% | -1.9
N#CC1(NC(=O)CSc2nncn2-c2ccccc2F)CCCC1 | / | -0.2% | 1.2% | 7% | 3% | / | -4.1
Cn1c(=O)c2c(nc(N/N=C3\CCCc4ccccc43)n2Cc2ccc(F)cc2)n(C)c1=O | 5.1 | 3.4% | 0.5% | 17% | -3%[15.4 µM] | 4% | -3.4
O=S(=O)(c1ccc2[nH]c3c(c2c1)CCCC3)N1CCCCC1 | / | ? | -9.7% | -7% | 2% | -7% | 5.9
CCn1c(COc2cccc(OC)c2)nnc1SCC(=O)NCC1CCCO1 (stereo unspecified) | -16 | 2.2% | / | -2% | 15%[15.4 µM] | -4% | 0.7
NC(=O)CC(NC(=O)OCc1ccccc1)C(=O)O (stereo unspecified) | 5.1 | -2.4% | -1.4% | 2% | 20% | 14% | -0.2
O=C(OCC#CCSc1nc2ccccc2o1)c1ccco1 | 0.6 | -0.4%[38.3 µM] | -0.7% | 0% | -42%[inhibitor] | 3% | 1.0
Cc1cc(C)cc(-n2nnnc2SCC(=O)Nc2cccc(NC(=O)c3ccco3)c2)c1 | -0.7 | 0.4% | 5.9% | 7% | -26% | ? | -2.1
COc1cc(/C=N/NC(=S)Nc2cccc(C(=O)O)c2)ccc1O | 2.7 | -0.3% | -13% | 3% | -2% | -8% | 1.0
CCCCNC(=O)c1nc(C2CCN(S(=O)(=O)c3csc(C(=O)O)c3)CC2)oc1-c1ccccc1 | / | -1.4% | -1.0% | / | / | / | 1.9
COc1ccccc1-c1c(C)nn2c(N3CCN(Cc4ccccc4)CC3)cc(C)nc12 | -1.5 | 5.3% | ? | -13% | 11% | -16% | -1.3
COc1ccc(CNC(=O)O[C@]23C[C@H]4C(=O)N(c5ccccc5)C(=O)[C@H]4C[C@@]2(O)CN(S(=O)(=O)c2ccc(C)cc2)C3)cc1OC | / | -1.0% | 3.7% | / | -4% | / | -8.0
COc1ccc(C(=O)Nc2c(C(C)(C)C)nn(C)c2C(C)(C)C)cc1 | 2.9 | 4.2% | 0.7% | 19% | -7%[15.4 µM] | 3% | 0.2
O=C(Nc1ccc(N2CCOCC2)cc1)c1cc2c(s1)CCCC2 | 0.0 | 11% | / | -11% | -21% | 5% | 0.2
COc1ccccc1NS(=O)(=O)c1cccc(C(=O)N/N=C/c2ccc(NC(C)=O)cc2)c1 | -0.7 | 8.2% | 3.7% | 10% | 7% | 0% | 0.7

# No enrichment for hits (roughly 5.1% active in at least one column).
